Source: PubChem BioAssay (National Center for Advancing Translational Sciences (NCATS))
ClpP mod – qHTS Assay for Activators of ClpP; purified B. subtilis ClpP, FRET peptide cleavage, 20 min; ATP-dependent Clp protease proteolytic subunit (Bacillus subtilis (strain 168)), P80244; 340,000 tested, 1.9% active; AID 651965, 2013; Potency, µM (series often up to 57.5 µM), for inactives: at the highest dose activity change, negative = active; active = well fitted falling curve with a large enough effect; inconclusive = small, poorly fitted or top-dose-only effect; inactive = no such curve, though single readings can be large or run the other way; further: potency means the concentration at half of the fitted maximal effect; the source files actives as falling curves though it sought activators and does not explain the sign; nearly all actives have a fitted effect of over 65% in size; many hits overshoot -100%
Target sequence (P80244 whole entry, looked up): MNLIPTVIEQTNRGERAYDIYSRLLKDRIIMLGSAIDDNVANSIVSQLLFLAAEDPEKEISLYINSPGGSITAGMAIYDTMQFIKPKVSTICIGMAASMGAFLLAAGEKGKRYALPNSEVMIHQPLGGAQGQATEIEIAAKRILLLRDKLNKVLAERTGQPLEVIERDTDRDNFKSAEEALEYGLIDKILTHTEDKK
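ClpP 10 microg/mL final, pH 8 Tris/KCl buffer with BSA, glycerol, Tween-20; compound pinned in; FRET-FV substrate; RT 20 min; Ex320/Em430; ΔFRET vs ADEP 5.8 microM, DMSO, no enzyme.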
TRPML1 blocker – inhibitors of human TRPML1 channel | 390,000 tested, 0.02% active | TRPML1-inducible cells, Ca2+ dye fluorescence, FDSS; stronger effect = lower value; inhibition of EC80 agonist-evoked calcium signal | activity change, negative = inhibition, % (concentration not given with the values); in the data active means activity change below about -50%; inconclusive means about -30% to -50%; inactive means above about -30%;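 further: stimulus is agonist 54-4 at its EC80 concentration; on the % scale 0 is the no-effect control and ±100 the full control effect; compound concentration not given in the record; the text of the record puts the active cut at -80%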
Target sequence (Q9GZU1 whole entry, looked up): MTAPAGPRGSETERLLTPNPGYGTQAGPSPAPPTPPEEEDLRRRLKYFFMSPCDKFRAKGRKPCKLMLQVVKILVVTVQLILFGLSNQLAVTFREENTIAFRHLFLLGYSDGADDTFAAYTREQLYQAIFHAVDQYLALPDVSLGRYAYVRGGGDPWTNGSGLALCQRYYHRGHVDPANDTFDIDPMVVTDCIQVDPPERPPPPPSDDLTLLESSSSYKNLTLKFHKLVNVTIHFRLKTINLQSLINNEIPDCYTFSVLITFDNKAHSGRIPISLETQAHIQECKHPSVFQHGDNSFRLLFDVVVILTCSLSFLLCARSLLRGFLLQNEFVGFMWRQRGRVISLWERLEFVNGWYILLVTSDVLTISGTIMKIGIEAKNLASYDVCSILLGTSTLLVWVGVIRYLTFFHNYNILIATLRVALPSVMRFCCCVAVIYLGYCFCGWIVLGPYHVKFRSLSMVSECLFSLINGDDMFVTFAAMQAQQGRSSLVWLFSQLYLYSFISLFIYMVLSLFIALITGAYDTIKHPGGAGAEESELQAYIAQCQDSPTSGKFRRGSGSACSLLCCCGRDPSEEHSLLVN
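Tet-induced TRPML1-DL cells loaded with Ca8 no-wash calcium dye were read kinetically on FDSS. Compound addition was followed by EC80 agonist 54-4 (4 uM final); inhibition was read over 110 s.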
Menin-MLL FL inh – inhibitors of human menin-MLL interaction, wild-type MLL peptide; AID 1766; 290,000 tested, under 10 active; FP activity change, % at 61.4 µM; Fluorescence polarization, fluorescein-MLL peptide displacement from menin; inconclusive = falling polarisation curve, or a change in total fluorescence; inactive = total fluorescence flat and polarisation flat or rising; no compound was filed as active; the % refers to the polarisation; negative = inhibition;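 further: % of control where 0% means no effect; inhibitors lower the polarisation; unlabelled MLL peptide was the positive control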
TRPML1 agonist – agonists of human TRPML1 channel; Q9GZU1; TRPML1-expressing cells, Ca2+ dye fluorescence, FDSS; host cell line not named in the record; reference of the full effect not given here; activation, % (no concentration beside the values); 410,000 tested, 0.12% active; AID 624414; in the data active = activation above about 50%; inconclusive = about 30% to 50%; inactive = below about 30%; further: 0% is about no effect; the text of the record puts the active cut at 80%
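Tet-induced TRPML1-DL cells, 1,500 per well, cultured overnight, were loaded with a no-wash Ca2+ dye for 45–90 min. Calcium fluorescence was recorded on the FDSS for 110 s after compound addition, before the EC80 agonist (4 uM 54-4) was added.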
gsp agonist – agonists of gsp mutant (McCune-Albright syndrome); gsp mutant cells, cAMP HTRF, 30 min; control for the full effect not named in the record; Potency, µM (series often up to 76.9 µM), without a hit: top-dose activation (cAMP increase), hits mostly activators; 340,000 tested, 0.13% active; active = well fitted activation curve with a large enough effect; inconclusive = small, poorly fitted or top-dose-only effect, or another doubt; inactive = no such curve, though single readings can be large or run the other way; cell line not stated here;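 further: phosphodiesterase inhibitor Ro 20-1724 added with compounds to block cAMP breakdown; potency means the concentration at half of the fitted maximal effect; nearly all actives have a fitted effect of over 60% in size; about a fifth of the inactives were tested at one dose only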
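Cells stably selected in G418 were plated at 2000/well, grown 16-24 hr, then given compounds in DMSO with the PDE inhibitor […] (300 uM solution added) for 30 min at 37C; cAMP was read by HTRF.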
gsp antagonist – gsp mutant antagonism. Potency, µM (highest dose often 76.9 µM), inactives show top-dose activity change, negative = inhibition, usual class: inhibitors. gsp-mutant cells, cAMP HTRF, 30 min; control for the full effect not named in the record. 340,000 tested, 0.4% active; active = falling curve of any shape with a large fitted effect; inconclusive = falling curve, mostly with a smaller effect; inactive = flat or rising curve; cell line not stated here;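 further: intracellular cAMP measured with PDE inhibitor Ro 20-1724 present during compound exposure; potency means the concentration at half of the fitted maximal effect; on the % scale 0 is the no-effect control and ±100 the full control effect; nearly all actives have a fitted effect of over 65% in size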
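Cells, 2000/well, grown 16–24 h in DMEM 10% FBS with 0.5 mg/ml G418, then compounds plus […] (300 uM addition stock), 30 min at 37C. cAMP read by HTRF (cAMP-d2 and anti-cAMP antibody-K in lysis buffer) after 30 min RT.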
Starred values were filed as active, the others as inactive; u = inconclusive; x = not tested or not shown; [ ] = another dose, or the depositor's remark.

Compound,ClpP mod,TRPML1 blocker,Menin-MLL FL inh,TRPML1 agonist,gsp agonist,gsp antagonist
CC(C)n1nnnc1SCC(=O)NCCc1ccccc1,-0.8%,14.5,1.2,0.0,2.5%,8.5%
CCOC(=O)c1c(NC(=O)c2ccc(S(=O)(=O)N(CCOC)CCOC)cc2)sc2c1CC(C)(C)NC2(C)C,2.3%,-19.3,x,1.0,x,x
COc1ccc(CCNC(=O)c2cccc(Nc3nc4ccccc4nc3-n3nc(C)cc3C)c2)cc1OC,-14.2%,-4.1,x,0.1,x,x
Cc1c(N)c(=O)n(-c2ccccc2)n1C,-0.7%,-5.4,0.7,0.9,x,3.5%
CC[N+](CC)(CC)CCOc1ccc(/C=C/c2ccccc2)cc1,-21.5%,9.9,x,-0.8,x,-4.0%
CN(C(=O)c1ccccc1)c1nccnc1C#N,0.5%,-23.3,1.2,-0.2,-7.6%[15.4 µM],0.2%
Cc1ccccc1-n1nnnc1SCc1cc(=O)n2ccsc2n1,-4.7%,-12.5,0.6,-0.7,-1.3%,-9.8%
CN(C)c1ccc(C2(c3ccc(N(C)C)cc3)OC(=O)c3cc(N)ccc32)cc1,x,-5.4,6.4,0.7,-22.2%,-14.7%
O=C(CN1CCN(S(=O)(=O)c2ccc(F)c(Cl)c2)CC1)N1CCc2ccccc2C1,0.2%,26.7,x,7.0,-8.2%,u
CCC(c1nnnn1C(C)C)N1CCN(C2CCCC2)CC1 (centres undefined),3.2%,12.2,0.8,-0.7,10.2%,-7.2%
CCOC(=O)/C(=N/Nc1ccccc1OC)N1CCCc2ccccc21,x,-10.3,2.9,2.4,-6.0%,-8.9%
Cc1ccc(C)c2[nH]c(=O)c(CCNS(=O)(=O)c3ccccc3)cc12,u,-11.1,7.4,-0.4,u,-0.2%
COCCNC(=O)c1oc2ccc3c(c2c1C)C(O)CC(C)(C)O3 (centres undefined),3.9%,28.0,0.7,3.9,u,-2.7%
O=C(CSc1ccccn1)Nc1ccc2c(c1)OCCO2,x,-5.0,-1.5,0.7,11.1%[15.4 µM],-1.2%
O=C1CN(C(=O)C2CCCCC2)C(c2ccccc2)c2cc(F)ccc2N1 (centres undefined),-1.7%,10.3,x,0.2,x,x
C[C@H](CO)N1C[C@H](C)[C@@H](CN(C)Cc2ccc(C(=O)Nc3ccccc3N)cc2)Oc2c(NC(=O)C3CCCCC3)cccc2C1=O,-3.2%,-2.2,x,0.2,-11.3%,-18.4%
CC(C(=O)O)N1C(=O)CSC1=S (centres undefined),-2.3%,-0.6,u,0.2,10.6%,5.1%
CSc1n[nH]c(=O)n1C1CCCCC1,0.1%,-2.8,2.9,-0.2,-6.6%,13.7%
CCCS(=O)(=O)N1CCC(C(=O)NCCN2CCCC2)CC1,-5.9%,4.4,2.5,-0.3,12.0%,-0.6%
Cc1ccc(Cn2nc(C)c(NC(=O)CCCn3nc([N+](=O)[O-])c(Cl)c3C)c2C)cc1,-2.8%,8.2,0.3,1.3,-4.9%,0.1%
CSc1ccccc1C(=O)Nc1ccc(S(=O)(=O)NC2=NCCCCC2)cc1,-2.2%,-9.9,x,-1.0,-11.2%,1.3%
CC(=O)NC1C(Oc2ccc(C=O)cc2)OC(COC(C)=O)C(OC(C)=O)C1OC(C)=O (centres undefined),x,3.6,-1.0,-0.1,0.5%[15.4 µM],x
NS(=O)(=O)c1ccc(NC(=O)CSc2nnc(NC3CC3)s2)cc1,-0.9%,-10.5,x,-0.2,1.5%,8.7%
CC(OCC(O)CN1CCN(S(=O)(=O)c2ccc(Cl)cc2)CC1)c1ccc(Cl)cc1 (centres undefined),-3.2%,1.6,x,0.3,u,x
CCCCC(=O)Nc1cc(OC)c(NC(=S)Nc2ccc(OC)cc2)cc1OC,-0.7%,-3.0,x,0.1,-43.6%[inhibitor],-7.2%

Results in ClpP mod and gsp agonist (five entries from above):
SMILES	ClpP mod	gsp agonist
NS(=O)(=O)c1ccc(NC(=O)CSc2nnc(NC3CC3)s2)cc1	-0.9%	1.5%
CC(C(=O)O)N1C(=O)CSC1=S (centres undefined)	-2.3%	10.6%
CSc1n[nH]c(=O)n1C1CCCCC1	0.1%	-6.6%
CC(=O)NC1C(Oc2ccc(C=O)cc2)OC(COC(C)=O)C(OC(C)=O)C1OC(C)=O (centres undefined)	x	0.5%[15.4 µM]
Cc1c(N)c(=O)n(-c2ccccc2)n1C	-0.7%	x

A second format for part of the listing above:
Below each SMILES – ClpP mod, TRPML1 blocker, Menin-MLL FL inh, TRPML1 agonist, gsp agonist, gsp antagonist
COc1ccc(CCNC(=O)c2cccc(Nc3nc4ccccc4nc3-n3nc(C)cc3C)c2)cc1OC
  -14.2%, -4.1, x, 0.1, x, x
Cc1c(N)c(=O)n(-c2ccccc2)n1C
  -0.7%, -5.4, 0.7, 0.9, x, 3.5%

(more compounds)
Compound,ClpP mod,TRPML1 blocker,Menin-MLL FL inh,TRPML1 agonist,gsp agonist,gsp antagonist
Cc1ccc(/C=N/NC(=O)c2cc(C3CC3)nc3ccccc23)o1,-2.4%,-6.3,3.0,-0.5,0.6%[15.4 µM],6.9%
CNc1sc(C(=O)c2ccc(F)cc2)c(N)c1-c1nc2ccccc2s1,1.2%,5.5,1.2,-0.3,15.5%,-2.8%
Cc1ccc(C)c(OCc2cc(C(=O)N3CCN(C4CCCCC4)CC3)no2)c1,-7.6%,10.3,x,0.1,2.1%,x
Cc1ccc(-c2nn(-c3ccccc3)cc2C(=O)NCCCN2CCOCC2)cc1,-1.7%,-16.0,x,0.2,-0.3%,-4.6%
CC(=O)c1cnc2nc(SCc3ccccc3)nn2c1C,-0.7%,7.0,1.0,0.5,-18.3%,-10.5%
COc1cccc(-c2cc3c(=O)n(-c4ccccc4)c(=S)[nH]c3s2)c1,1.3%,-3.0,2.3,-1.1,11.2µM*,18.9%
COCCN=C1Sc2nc3c(C)cccc3cc2CN1Cc1ccco1,5.8%,11.0,19.6,-0.1,4.5%,1.0%
Cc1cc2c(cc1S(=O)(=O)NCc1ccc(Cl)cc1)OCC(=O)N2,0.5%,-7.4,0.8,-0.6,-41.9%,10.1%
CCn1c(=O)c([N+](=O)[O-])c(N2CCOCC2)c2ccccc21,1.1%,2.8,2.5,-0.4,-18.7%,2.7%
Cc1ccnc(NC(=O)CNC(=O)C23CC4CC(CC(C4)C2)C3)c1,-1.4%,-3.2,x,-0.5,-24.0%,5.7%
CNS(=O)(=O)c1ccc(C(=O)NCC(=O)NC(C)c2cccs2)cc1 (centres undefined),0.4%,-2.1,x,0.8,-0.5%,24.3%
CC1=C([N+](=O)[O-])C(c2ccc(Cl)cc2)NC(=O)N1C (centres undefined),x,0.7,-4.3,-0.1,u,7.1%
COCCC(=O)N1CCC(Oc2ccc(C(=O)NC3CCCCC3)cc2)CC1,0.6%,-19.6,-1.6,0.2,19.7%,8.2%
O=C(C1CCCCCC1)N1CC[C@@H](N2CCC(O)CC2)[C@H](O)C1,-19.4%,-2.9,-6.0,0.6,11.7%[15.4 µM],1.3%
COc1ccc(CCNC(=O)CN(c2ccccc2)S(C)(=O)=O)cc1,x,-12.2,3.5,-0.3,-20.3%[15.4 µM],16.5%
Cc1ccc(S(=O)(=O)N(Cc2cc3ccccc3[nH]c2=O)c2cccc(C)c2)cc1,-5.6%,x,-0.2,x,12.9%,3.2%
Cc1cnc(NS(=O)(=O)c2ccc(N)cc2)nc1-c1ccccc1O,-3.9%,-18.5,x,-0.5,-68.7%[inhibitor],x
COc1ccccc1Oc1nc(C)c(C(C)=O)cc1C#N,x,0.5,0.5,2.2,-2.0%[15.4 µM],5.0%
Cc1ccc(S(=O)(=O)N2CCN(c3ncnc4c3cnn4-c3ccccc3)CC2)cc1,-2.5%,-1.0,0.9,1.1,17.7%,16.9%
c1ccc(Oc2nc(-c3ccccn3)nc3ccccc23)cc1,x,6.7,2.4,1.1,u,0.3%
COCCNc1ncnc2onc(-c3ccc(F)cc3)c12,3.7%,11.6,x,0.1,x,x
CCC1CN(C(=O)Nc2cc(Cl)ccc2C(=O)OC)c2ccccc2S1 (centres undefined),-18.9%,10.5,x,0.0,x,x
O=C(c1ccco1)N1CCN(C(=O)c2cccc3c2C(=O)N(C2CCCCC2)C3)CC1,-0.2%,-26.9,-1.4,-0.3,4.7%,7.7%
CCOc1ccc(S(=O)(=O)n2nc(C)c(S(=O)(=O)N3CCCCCC3)c2C)cc1,-2.3%,-1.9,x,1.6,x,x
CCOc1ccc(NC(=O)C2CCN(S(=O)(=O)c3c(C)noc3C)CC2)cc1,-0.4%,14.8,-2.0,-0.2,5.9%,11.9%

Three of the entries above in order of their number in Menin-MLL FL inh, highest first:
| smiles | Menin-MLL FL inh |
| --- | --- |
| c1ccc(Oc2nc(-c3ccccn3)nc3ccccc23)cc1 | 2.4 |
| Cc1ccc(S(=O)(=O)N2CCN(c3ncnc4c3cnn4-c3ccccc3)CC2)cc1 | 0.9 |
| Cc1cc2c(cc1S(=O)(=O)NCc1ccc(Cl)cc1)OCC(=O)N2 | 0.8 |

The results go on:
Compound,ClpP mod,TRPML1 blocker,Menin-MLL FL inh,TRPML1 agonist,gsp agonist,gsp antagonist
COc1ccc2c(C(=O)NCc3ccc4c(c3)OCO4)c(-c3ccc(S(C)(=O)=O)cc3)sc2c1,4.2%,4.2,x,-0.6,x,-22.0%
O=C1C(Nc2ccccc2)=CC(c2ccc(Br)cc2)N1c1ccccc1 (centres undefined),-1.2%,17.1,x,0.1,x,x
Cc1cn[nH]c1,-11.9%,-6.1,-1.7,0.1,x,-3.1%
CCN(CC)C(=O)N1CCN(c2c([N+](=O)[O-])c(=O)oc3ccccc23)CC1,-14.6%,6.0,x,-0.7,-10.7%,10.0%
